# StopGo reporter = High Throughput Screening for Foot and Mouth Disease Virus Antivirals | human cells with a luciferase reporter of 2A StopGo recoding; control for the full effect not named in the record | Potency, µM (top dose mostly 57.9 µM), for the others: at the highest dose signal change, negative = less light | 1.2% of 410,000 active; active = well fitted falling curve with a large enough effect; inconclusive = small, poorly fitted or top-dose-only effect; inactive = no such curve, though single readings can be large or run the other way; tested in HEK293T cells; note: % is set by controls: 0 for no effect and ±100 for the full control effect; nearly all actives have a fitted effect of over 45% in size; luciferase light after 4 h
# SARS PLP yeast = qHTS of Yeast-based Assay for SARS-CoV PLP. S. cerevisiae expressing SARS-CoV PLpro, growth rescue; control for the full effect not named in the record. Potency, µM (top dose mostly 32.9 µM), inactives show at the top dose activity, positive = growth rescue. 0.19% of 330,000 active. AID 485353, 2010; active means well fitted rising curve with a large enough effect; inconclusive means small, poorly fitted or top-dose-only effect; inactive means no such curve, though single readings can be large or run the other way; note: 0% is about no effect; nearly all actives have a fitted effect of over 55% in size; growth read by luminescence after 48 h
# LASV entry inh = qHTS for Inhibitors of binding or entry into cells for Lassa Virus | Lassa virus pseudotype entry inhibition, cell reporter; control for the full effect not named in the record | Potency, µM (titrated, usually from 37.9 µM), for the others: top-dose activity change, negative = inhibition, usual class: inhibitors | 1.2% of 300,000 active | AID 540256, 2011; active means well fitted inhibition curve with a large enough effect; inconclusive means small, poorly fitted or top-dose-only effect, or effect the other way; inactive means flat fitted curve, though single readings scatter; tested in HEK293 cells; note: % is set by controls: 0 for no effect and ±100 for the full control effect; nearly all actives have a fitted effect of over 50% in size; luciferase read-out
# Cruzain inh noDet = qHTS Assay for Promiscuous and Specific Inhibitors of Cruzain (without detergent); purified cruzain, Z-FR-AMC fluorescence, no detergent; Potency, µM, for inactives: max response, negative = inhibition, usual class: inhibitors; AID 1476, 2009; Cruzipain (Trypanosoma cruzi), P25779; 2.3% of 200,000 active;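 note: plate controls were enzyme without inhibitor for no effect and buffer without enzyme for full effect; nearly all actives have a fitted effect of over 40% in size; top concentration of the series not given in the record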
# Target sequence (P25779 123-467 limits assumed): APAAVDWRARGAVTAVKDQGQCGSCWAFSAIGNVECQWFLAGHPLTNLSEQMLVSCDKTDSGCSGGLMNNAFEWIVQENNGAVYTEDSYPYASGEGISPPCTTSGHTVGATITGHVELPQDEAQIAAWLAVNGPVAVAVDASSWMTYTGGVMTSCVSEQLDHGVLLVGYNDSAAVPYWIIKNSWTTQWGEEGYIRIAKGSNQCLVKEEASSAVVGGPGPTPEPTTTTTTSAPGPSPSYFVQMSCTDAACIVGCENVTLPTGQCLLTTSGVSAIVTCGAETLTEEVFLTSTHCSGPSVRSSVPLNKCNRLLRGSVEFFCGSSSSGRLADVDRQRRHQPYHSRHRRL
#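 Purified cruzain at 1.5 nM, pre-incubated 15 min with compound at room temperature in 100 mM sodium acetate pH 5.5, 5 mM DTT, 0.00005% Triton X-100. Reaction started with 2 uM Z-FR-AMC; AMC fluorescence increase over 60 s gives rate.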
# RE007 growth inh = qHTS Assay for Inhibitors of the HIV-1 protein Vpr; S. pombe RE007 Vpr strain, BacTiter-Glo ATP luminescence, 24 h; control for the full effect not named in the record; Potency, µM (doses to about 92.2 µM), for the others: top-dose activity change, negative = less growth; 0.21% of 360,000 active; active = well fitted falling curve with a large enough effect; inconclusive = small, poorly fitted or top-dose-only effect; inactive = no such curve, though single readings can be large or run the other way;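 note: % is set by controls: 0 for no effect and ±100 for the full control effect; nearly all actives have a fitted effect of over 50% in size; the assay follows cell death caused by Vpr and the record does not say whether a fall means rescue or toxicity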
#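 Fission yeast strain RE007, carrying one chromosomally integrated HIV-1 vpr copy, was seeded at OD 0.01 in PMG+AL medium with 23 nL pinned compound. After 24 h at 30 °C and 99% humidity, viability was read by BacTiter-Glo luminescence.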
# NS1 function inh = qHTS Assay for Inhibitors of Influenza NS1 Protein Function; S. cerevisiae slowed by influenza A NS1, growth recovery by OD600; Potency, µM (highest dose often 46.1 µM), for inactives: top-dose activity, positive = more growth; 0.4% of 270,000 active; active means well fitted rising curve with a large enough effect; inconclusive means small, poorly fitted or top-dose-only effect; inactive means no such curve, though single readings can be large or run the other way; note: nearly all actives have a fitted effect of over 50% in size
#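 In this qHTS, NS1 from influenza A is expressed in budding yeast, where it slows growth. Cells are switched from glucose to 2% galactose medium (pH 6.0, -URA), treated with compound, and growth recovery is read at OD600.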
# Cruzain Triton = qHTS Assay for Promiscuous and Specific Inhibitors of Cruzain (with detergent). AID 1478, 2009. purified cruzain, Z-FR-AMC fluorescence, 0.01% Triton. 0.43% of 200,000 active. Potency, µM, for the others: max response, negative = inhibition, most hits filed as inhibitors;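 note: plate controls were neutral wells for no effect and buffer without enzyme for full effect; nearly all actives have a fitted effect of over 40% in size; top concentration of the series not given in the record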
#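 Purified cruzain (1.5 nM final) was preincubated with compounds for 15 min at room temperature in 100 mM sodium acetate pH 5.5, 5 mM DTT, 0.01% Triton X-100. Reaction started with 2 uM Z-FR-AMC; AMC fluorescence change over 60 s gave activity.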
# Marburg entry inh = qHTS for inhibitors of binding or entry into cells for Marburg Virus; Marburg virus pseudotyped entry inhibition, cell reporter; control for the full effect not named in the record; about a third of the inactives were read at about 46 µM; 1.8% of 300,000 active; AID 540276, 2011; Potency, µM (titrated, usually from 37.8 µM), for inactives: top-dose activity change, negative = inhibition, most hits filed as inhibitors; active = well fitted inhibition curve with a large enough effect; inconclusive = small, poorly fitted or top-dose-only effect, or effect the other way; inactive = flat fitted curve, though single readings scatter; tested in HEK293 cells; about a fifth of its hits are not listed in these tables; note: % is set by controls: 0 for no effect and ±100 for the full control effect; luciferase read-out
# An asterisk follows results filed as active; ? = inconclusive; nt = not tested or not shown; & = joins results of further samples; [ ] = remark or other dose. Unless noted, calls come from the whole dose curve; as a rule, active = well fitted curve in the direction sought with a large enough effect; inconclusive = small, poorly fitted or top-dose-only effect, or another doubt; inactive = no such curve, though single readings can be large; an effect the other way counts as inactive or inconclusive. Potency is the fitted concentration of half-maximal effect.
SMILES,StopGo reporter,SARS PLP yeast,LASV entry inh,Cruzain inh noDet,RE007 growth inh,NS1 function inh,Cruzain Triton,Marburg entry inh
CCOC(=O)Cc1sc(N)nc1C,-18%,1%,15%,2%,-3%,8%,1.0%,?
CC(C)[C@H](NC(=O)CCn1nnc2ccccc2c1=O)C(=O)O,-11%,1%,-2%,-6%,9%,5%,1.4%,3%[46.1 µM]
COCC(C)n1c(C)cc(C(=O)COC(=O)c2oc3ccccc3c2C)c1C (stereo not drawn),?,-1%,?,?,12%,9%,2.4%,?
N#Cc1ccc(C(=O)Nc2nnc(-c3cccs3)o2)cc1,11%,-2%,nt,nt,-1%,7%,nt,nt
N#C/C(=C\Nc1ccccc1SC(F)(F)F)c1nc(-c2ccc(F)cc2)cs1,-9%,-1%,-5%,-3%,1%,7%,5.1%,12%
CC1C(=O)C(C)C(c2ccc(Cl)cc2)NC1c1ccc(Cl)cc1 (stereo not drawn),-6%,nt,?,nt,-26%,nt,nt,?
COc1ccc(-c2cc(C(=O)N3CCN(c4ccccc4OC)CC3)no2)cc1OC,-19%,-2%,15%[46.1 µM],nt,7%,nt,nt,?
COc1ccc(-c2noc(CN(C(=O)C(C)(C)C)C(C)C)n2)cc1,37%[activator],-3%,6%,17%,-2%,-16%,-6.2%,?
CN1CCc2cc3c(c4c2[C@H]1[C@H](O)c1ccccc1-4)OCO3,-16%,-14%,-23%,-3%,-24%,-24%,-4.2%,-5%
Cc1cc(C(=O)Cn2nc(C(=O)O)c3ccccc3c2=O)c(C)n1CC(F)(F)F,45%[activator],0%,10%,nt,24%,nt,nt,?

# Brought forward from above: 3 compounds; new compounds follow.
SMILES,StopGo reporter,SARS PLP yeast,LASV entry inh,Cruzain inh noDet,RE007 growth inh,NS1 function inh,Cruzain Triton,Marburg entry inh
COc1ccc(-c2noc(CN(C(=O)C(C)(C)C)C(C)C)n2)cc1,37%[activator],-3%,6%,17%,-2%,-16%,-6.2%,?
CN1CCc2cc3c(c4c2[C@H]1[C@H](O)c1ccccc1-4)OCO3,-16%,-14%,-23%,-3%,-24%,-24%,-4.2%,-5%
Cc1cc(C(=O)Cn2nc(C(=O)O)c3ccccc3c2=O)c(C)n1CC(F)(F)F,45%[activator],0%,10%,nt,24%,nt,nt,?
CCN(CC)C(=O)[C@H]1C[C@H](CC(=O)NCc2ccco2)C(=O)N2CCc3c([nH]c4cc(CCC(=O)N(C)C)ccc34)[C@]12C,-18%,-4%,nt,nt,-13%,nt,nt,-4%
CCC(CC)C(=O)c1c[nH]c(C(=O)NCCCn2ccnc2)c1,37%[activator],0%,9%,-6%,9%,5%,0.6%,4%
Cc1ccsc1C1C=C(c2cccc(Br)c2)Nc2ncnn21 (stereo not drawn),?,-1%,-33%,?,-16%,-41%,-9.1%,?
COc1ccc(C)cc1NC(=O)NC1CCN(Cc2ccccc2)CC1,-9%,2%,1%,-17%,-5%,2%,0.7%,?
O=C(CN1CC(c2ccccc2)CC1=O)N/N=C/c1cc(Br)ccc1O (stereo not drawn),-29%,10µM*,?,?,4%,-8%,-11%,?
O=C(CSc1nc(C(F)(F)F)cc(=O)[nH]1)N1CCCC1,-1%,1%,?,nt,-14%,nt,nt,8%
CC(=O)c1ccc(NS(=O)(=O)c2ccc(-c3cc(C)no3)s2)cc1,36%[activator],nt,4%[46.1 µM],-22%,nt,nt,-5.9%,nt
COCCNC(=O)CCCCCn1c(=S)[nH]c2ccccc2c1=O,-7%,29%,4%,5%,-10%[3.69 µM],9%,5.6%,-17%
CCc1ccccc1NC(=O)CSc1nc(-c2cccc(Cl)c2)nc2c1Cc1c(CO)cnc(C)c1O2,-4%,nt,-15%[46.1 µM],0%,nt,nt,0.8%,nt
Cc1ccc(S(=O)(=O)c2ccc(NN)cc2)cc1,10%,1%,-26%,nt,4%,nt,nt,nt
COc1ccc(NC(=S)N2CCN(S(=O)(=O)c3ccccc3)CC2)cc1,-1%,-2%,-9%[46.1 µM],nt,10%,10%,nt,?
COc1ccccc1NC(=O)COC(=O)c1cc(C)nc2ccccc12,-8%,0%,2%,nt,6%,nt,nt,?
COc1ccccc1CNC(=O)c1ccc(NS(=O)(=O)c2cccs2)cc1,18%,4%,14%,nt,3%,-4%,nt,3%[46.1 µM]
c1ccc(-n2nnnc2Oc2cccc3cccnc23)cc1,nt,-5%,-20%,-2%,0%,-15%,0.2%,?
COC(=O)C1=C(C(=O)OC)[C@@H]2N(Cc3ccccc3)c3ccccc3[C@@]23C[C@@H](CO)N(C(=O)NC2CCCC2)C3=N1,-22%,1%,nt,nt,0%,-6%,nt,nt
CCOc1ccccc1C1N=C(c2ccc(OC)cc2)CC(c2ccccc2O)N1 (stereo not drawn),5%,-8%,-19%,nt,5%,nt,nt,13%
O=C(Nc1nnc(-c2ccco2)o1)c1cccc2ccccc12,-2%,-27%,2%,-7%,-26%,6%,-0.8%,-11%
Cc1cc(C)[n+](C2C3CC4CC(C3)CC2C4)o1 (stereo not drawn),-16%,3%,?,1%,-8%,19%,-0.9%,23%
O=C(Cn1cccc1C(=O)c1ccccc1)NCc1ccc(Cl)cc1,16%&2%,4%,7%[46.1 µM],13%,8%,nt,-3.2%,-7%&-7%[46.1 µM]
O=c1[nH]c(=O)c2nc(-c3ccc(Cl)cc3)cnc2[nH]1,4%,0%,9%,nt,-6%,8%,nt,-12%[46.1 µM]
CCC(=O)N(CCC(c1ccccc1)c1ccco1)Cc1cccs1 (stereo not drawn),0%,-1%,?,0%,-7%,7%,-5.2%,?
O=C(N/N=C/c1cccc(O)c1)c1cc2c(ccc3ccccc32)o1,-11%,-5%,nt,nt,-2%,20%,nt,nt
O=C(CSc1oc(-c2ccccc2)nc1S(=O)(=O)c1ccc(Br)cc1)c1ccccc1,20%,nt,-23%[46.1 µM],13µM*,nt,nt,-4.0%,-25%[46.1 µM]
CC(C)(C)n1nc2c(c1NC(=O)COc1ccc3ccccc3c1)CS(=O)C2 (stereo not drawn),-14%,8%,nt,4%,11%,-6%,7.5%,nt
CC1Cc2ccccc2N1C(=O)COC(=O)C1=COCCO1 (stereo not drawn),18%,-9%,17%,0%,6%,-11%,-0.2%,-2%
Cc1ccc2sc(NNC(=O)c3cc(=O)c4ccccc4o3)nc2c1C,22%,-6%,nt,nt,-15%,16%,nt,nt
Cc1cccc(C)c1OCC(=O)NC1CC1,-11%,1%,nt,nt,-9%,2%,nt,nt
NC(N)=NC(N)=Nc1cccc2ccccc12,-16%,0%,7%,nt,12%,2%,nt,3%[46.1 µM]
Cc1oc(C)c(C(=O)NCCCC(=O)O)c1C(=O)NCCCC(=O)O,-2%,4%,13%,0%,5%,-6%,7.0%,23%
CCN(Cc1ccccc1)S(=O)(=O)c1cc(C(=O)c2c(N)n(C)c(=O)n(C)c2=O)ccc1OC,-9%,1%,nt,nt,-1%,-14%,nt,nt
COc1ccc(CC(=O)OCc2cc3cccc(C)c3[nH]c2=O)cc1,-13%,3%,9%,1%,-9%,-7%,2.1%,2%
Cc1ccc(-n2nnnc2SCCNS(=O)(=O)c2ccccc2)cc1C,nt,-10%,-13%,0%,2%,-62%,-3.9%,?
Cc1cc(OCC(=O)N[C@@H](Cc2ccccc2)c2nc3ccccc3[nH]2)ccc1Cl,0%,7%,-10%,-21%,1%,9%,0.4%,1%
NC(=O)c1ccsc1NC(=O)CSc1nnc(Nc2ccccc2)s1,?,2%,?,nt,-6%,15%,nt,?
CC(C)c1ccc(NC(=O)Cc2ccc(NC(=O)N3CCCCc4ccccc43)cc2)cc1,-6%,nt,-30%[46.1 µM],-19%,nt,nt,-3.5%,nt
CCc1ccc(/C=C2/SC(=S)N(CCCC(=O)Nc3ccccc3C(=O)O)C2=O)cc1,?,3%,-28%[46.1 µM],nt,0%,11%,nt,-27%[46.1 µM]
CCOC(=O)c1nn(-c2ccccc2)c(=O)cc1SC(C)CC (stereo not drawn),-27%,-9%,21%,-2%,-16%,-68%,0.9%,9%
O=C(c1ccc(Br)s1)N1CCN(c2ccccn2)CC1,-1%,nt,3%,nt,-13%,-2%,nt,15%
CC(=O)c1ccc(NC(=O)c2ncn(-c3ccccc3)n2)cc1,55%[activator],nt,16%[46.1 µM],-6%,nt,nt,-1.6%,?
CCOc1ccc(NC(=O)c2cccn(Cc3cccc(Cl)c3)c2=O)cc1,-19%,nt,?,2%,nt,nt,0.1%,nt

# The last 2 compounds of the section before are carried over, then new ones follow.
SMILES,StopGo reporter,SARS PLP yeast,LASV entry inh,Cruzain inh noDet,RE007 growth inh,NS1 function inh,Cruzain Triton,Marburg entry inh
CC(=O)c1ccc(NC(=O)c2ncn(-c3ccccc3)n2)cc1,55%[activator],nt,16%[46.1 µM],-6%,nt,nt,-1.6%,?
CCOc1ccc(NC(=O)c2cccn(Cc3cccc(Cl)c3)c2=O)cc1,-19%,nt,?,2%,nt,nt,0.1%,nt
Cc1cc(-c2nnc(SCC(=O)Nc3ccccn3)o2)no1,-10%,-2%,-2%,nt,0%,nt,nt,?
COc1ccc(C2(C)NC(=O)N(CC(=O)Nc3ccc4[nH]c(=O)[nH]c4c3)C2=O)cc1 (stereo not drawn),4%,-4%,25%,nt,-2%,nt,nt,22%
COc1cc(CN2CCCC(CO)(Cc3ccccc3)C2)ccc1O (stereo not drawn),-11%,-2%,8%,nt,4%,?,nt,21%
CSC1=NSC2=NC(=O)/C(=C\c3cccs3)C(=N)N12,-55%,-105%,?,-13%,?,-25%,-0.3%,?
O=C(N=Nc1c(O)[nH]c2ccccc12)c1cc(-c2cccs2)[nH]n1,13%,0%,-29%[46.1 µM],nt,6%,-5%,nt,?
COc1ccc(OC)c(S(=O)(=O)NCCS(=O)(=O)N2CCN(c3ccccc3F)CC2)c1,14%,nt,-25%[46.1 µM],15%,nt,nt,-3.1%,nt
